Sa growth inh = S. aureus growth inhibition at 42 and 30 °C, primary screen, LtaS inhibitor project, RN4220, two temperatures. 170,000 compounds, 0.53% hits. AID 720641, 2013. relative growth, % (no concentration beside the values). OD600, 20 h, 42 °C; active compounds read low;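 active means growth at 42 °C up to 50% and 20 or more points under that at 30 °C, or under 10% at both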;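 further: 300 nL library stock went into each well; scaled to the means of positive and negative controls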
HCMV UL50-53 inh = inhibitors of HCMV UL50-UL53 interaction, biochemical, HTRF; HCMV UL50-UL53 nuclear egress complex (human cytomegalovirus); normalized percent inhibition; inhibition, % (no concentration beside the values); 190,000 compounds, 0.15% hits;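 active means both replicates at 50% or more, plus weaker picks with an unusually low signal ratio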;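 further: stock transfer was 100 nL into about 20 µL; 0% = negative control wells and 100% = wells with untagged competitor protein; inactives centre near -12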
GIV-Gai inh = inhibitors of GIV peptide binding to Galpha-i3, primary screen, biochemical, fluorescence polarization, FITC-GIV GBA peptide, rat Galphai3. Guanine nucleotide-binding protein G(i) subunit alpha-3 (Rattus norvegicus), P08753. 90 min; active compounds read low; scaled: aluminum fluoride 0%, vehicle 100%. percent of control (FP), % (test concentration not listed). 210,000 compounds, 0.42% hits. AID 1224905, 2016;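 active means replicate mean at 85% of control or lower, very high polarization wells dropped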;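 further: lower values mean more displacement of the GIV peptide from Galpha-i3; wells of about 15 µL received 100 nL stock; the first replicate is given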
Target sequence (P08753 whole entry, looked up): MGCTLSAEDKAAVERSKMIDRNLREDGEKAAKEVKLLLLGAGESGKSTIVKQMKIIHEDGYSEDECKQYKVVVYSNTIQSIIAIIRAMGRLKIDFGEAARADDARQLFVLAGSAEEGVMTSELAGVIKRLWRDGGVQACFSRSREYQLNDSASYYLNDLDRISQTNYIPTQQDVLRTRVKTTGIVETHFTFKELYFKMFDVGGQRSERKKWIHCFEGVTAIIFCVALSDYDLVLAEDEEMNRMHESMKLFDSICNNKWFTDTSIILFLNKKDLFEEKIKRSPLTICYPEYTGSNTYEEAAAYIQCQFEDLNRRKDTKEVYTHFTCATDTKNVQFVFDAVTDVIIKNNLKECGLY
Sa growth inh second temp = second read-out of Sa growth inh, no call of its own (marks repeat the call); relative growth, %; measured here: growth at 30 °C;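 optical density after 20 h as mean of two plates; 100% = untreated growth and lower means inhibition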
Active calls of the source: *; x = no result given; & = joins results of further samples. This is a random part of the collection. Share with any hit: about 0.83%.

SMILES	Sa growth inh	Sa growth inh second temp	HCMV UL50-53 inh	GIV-Gai inh
COc1ccc(NC(=O)c2cc3c(s2)-c2ccccc2SC3)cc1	93	85	x	103
COc1ccccc1-n1c(=O)c2c3c(sc2n2c(SCC(=O)c4ccccc4)nnc12)CCC3	114	91	-5	104
CCOC(=O)c1c(C)n(C)c2ccc(O)c(S(=O)(=O)c3ccc(C)cc3)c12	94	83	1	x
S=C1NCCN1CCOc1ccccc1	96	96	x	97
CC(C)(C)c1ccc(S(=O)(=O)N2CCC(NC(=O)c3ccco3)CC2)cc1	107	93	-11	103
O=c1c(C=Nc2ccccc2)c(Nc2ccccc2)[nH]n1-c1ccccc1	80	89	-12	103
Cc1ccc(-n2c(SCC(=O)N3CCC(C)CC3)nc3c([nH]c4ccccc43)c2=O)cc1	124	94	x	106
Cc1cc(=O)oc2cc(OCC(=O)c3ccc4c(c3)OCO4)ccc12	105	98	12	x
Cc1oc(-c2ccccc2F)nc1Cn1c(SCc2cccc(Cl)c2)nc2ccncc21	119	74	22	101
O=C(COc1ccc(Cl)cc1)Oc1cc(=O)[nH]c2ccccc12	100	100	-4	x
O=C(CSc1nc2ccccc2nc1-c1ccccc1)NCCN1CCOCC1	97	99	-10	101
O=C(CN1C(=O)S/C(=C\c2cccs2)C1=O)N1CCCC1	86	99	-33	x
Cc1ccc(NC(=O)N2CCN(C)c3ncccc32)cc1	x	x	-32	101
COc1ccc(-c2cc(C(F)(F)F)nc(S(=O)(=O)CCCC(=O)Nc3cccc(O)c3)n2)cc1OC	69	54	-31	108
CCc1ccc(S(=O)(=O)N(C(=O)c2ccccc2)c2ccc3oc(C)c(C(=O)OC)c3c2)cc1	x	x	19	100
c1ccc(-n2nnnc2Sc2nc(C3CC3)n(-c3ccccc3)n2)cc1	98	96	-37	x
N#CCC(=O)c1cccc(CSc2ccccc2Cl)c1	78	70	-13	103
Cc1nc2ccccc2n(Cc2ccc(C(=O)NCCc3c[nH]c4ccc(Cl)cc34)cc2)c1=O	x	x	-33	108
CCCCCOc1ccc(C(=O)Nc2ccc3c(c2)NC(=O)CO3)cc1	x	x	-24	108
COc1ccccc1-c1nc2c(c(SCC(=O)Nc3ccc(C)c(C)c3)n1)Cc1c(CO)cnc(C)c1O2	119	81	x	109
CCCS(=O)(=O)N1CCC(N2CCN(Cc3ccc(F)cc3)C(=O)C2=O)CC1	101	91	-8	102&106
Cc1cc(C(=O)N2CCC(Cc3ccccc3)CC2)on1	93	86	0	100
COC(=O)c1ccc(NC(=O)C(C(C)C)N2C(=O)c3ccccc3C2=O)cc1 (configuration not stated)	102	90	-13	99
Cc1cccc(-c2nnc(SCC(=O)N3CCC(C)CC3)o2)c1	x	x	-11	101
CCOC(=O)CSc1sc(C(=O)OCC)c2c1C(O)CCC2 (configuration not stated)	94	84	-13	101
CCC(O)c1cc2c(cc1NC(=O)c1cccs1)OCCO2 (configuration not stated)	81	101	-1	102
CCOC(=O)c1cc(S(=O)(=O)N2CCN(c3cc(C)ccc3C)CC2)[nH]n1	77	74	x	104
O=S(=O)(Nc1nc(SCc2ccc(Cl)cc2)n[nH]1)c1ccccc1	114	89	38	103
Cc1ccc(CSc2nc3cccnc3n2Cc2ccc(C(=O)NCCc3cccs3)cc2)cc1	104	107	x	104
O=C(O)CN1C(=O)/C(=C2\SC(=Nc3cccc(Cl)c3Cl)NC2=O)c2ccccc21	x	x	-10	117
CC1=C(c2ccc(C)c(C)c2)S(=O)(=O)N=C1N1CCC(C(=O)N2CCCCC2)CC1	91	94	x	107
CC(=O)Nc1ccc(C(=O)OCC(=O)Nc2ccc3ccccc3c2)cc1	93	104	18	x
C=CCSC1=C(C#N)C(c2ccccc2Cl)C(C(=O)c2cccs2)C(O)(C(F)(F)F)N1 (configuration not stated)	61	95	11	x
Cc1nn(C)c2nc(OC(C)C(=O)N3CCN(c4ccccc4)CC3)cc(C(F)(F)F)c12 (configuration not stated)	x	x	-30	105
O=C(Cn1c(=O)[nH]c2ccsc2c1=O)NCc1cccs1	92	79	-5	106
Cc1cc(NC(=O)CCNS(=O)(=O)c2ccc3c(c2)CCCC(=O)N3)ccc1Br	101	95	x	108
Cc1cc(NC(=O)c2ccco2)cc(-c2nc3cc(Cl)ccc3o2)c1O	104	89	-19	102
Cc1ccc(S(=O)(=O)N2CCCC(c3nc(-c4cccc(C)c4)no3)C2)cc1 (configuration not stated)	x	x	-12	103
COc1ccccc1C(=O)Nc1ccccc1OCc1cc(=O)n2c(C)csc2n1	101	86	-36	103
Cc1ccc(NC(=O)Cc2c(C)nc3ncnn3c2C)cc1	99	95	-17	x
CCOC(=O)c1[nH]c(CO/N=C/C(=O)Nc2ccc3c(c2)OCCO3)c(C(=O)OCC)c1C	98	96	-17	x
Cc1nc2cc(-c3ccccc3)nn2c(C)c1CCC(=O)N1CCN(c2ccccc2)CC1	101	93	-30	101
Cc1cn(CC(=O)NCCN)c(=O)[nH]c1=O	86	90	-3	x
c1ccc(Cn2nnnc2SCc2ccc(CSc3nnnn3Cc3ccccc3)cc2)cc1	92	99	-2	108
CC1=C(c2ccc(C(C)C)cc2)S(=O)(=O)NC1=NCc1ccccc1Br	118	107	-14	96

Reformatted as a markdown table: part of the list above.
| compound | Sa growth inh | Sa growth inh second temp | HCMV UL50-53 inh | GIV-Gai inh |
| --- | --- | --- | --- | --- |
| CCOC(=O)c1[nH]c(CO/N=C/C(=O)Nc2ccc3c(c2)OCCO3)c(C(=O)OCC)c1C | 98 | 96 | -17 | x |
| Cc1nc2cc(-c3ccccc3)nn2c(C)c1CCC(=O)N1CCN(c2ccccc2)CC1 | 101 | 93 | -30 | 101 |
| Cc1cn(CC(=O)NCCN)c(=O)[nH]c1=O | 86 | 90 | -3 | x |

Other records
SMILES	Sa growth inh	Sa growth inh second temp	HCMV UL50-53 inh	GIV-Gai inh
COC(=O)CN1C(=O)C(C)(C)Oc2ccc(C(=O)Nc3cccc(OC)c3)cc21	89	71	-15	103
COc1ccnc2c1c(=O)n(CC(=O)Nc1ccc3c(c1)OCCO3)c(=O)n2C	x	x	8	100
CN1C(=O)c2cc(C(=O)NCCCN3CCOCC3)nn2CC1(C)C(=O)NC1CCCC1 (configuration not stated)	x	x	-14	103
O=C(NCC1CCCO1)c1sc(=S)n2c1[nH]c(=O)c1cc3c(cc12)OCO3 (configuration not stated)	x	x	-16	103
COc1ccc2[nH]c(=O)c(CNCc3ccccc3)cc2c1	76	112	21	108
Cc1noc(NC(=O)NC(=O)c2cc(F)c(N(C)C)c(F)c2)c1C	88	97	-13	98
CN1CCN(C(=O)CCN2C(=O)/C(=C/c3ccc(Cl)cc3)SC2=S)CC1	93	87	x	100
COc1cc2ncnc(Sc3ccccn3)c2cc1OC	96	91	-23	113
Cc1ccc(NC(=O)CN2C(=O)CCn3nc(-c4cccn4C)cc32)cc1	74	86	x	110
CCn1c2ccccc2n2c(SC(C)C(=O)O)nnc12 (configuration not stated)	99	85	-5	97
COC(=O)c1ccc(C2OCCCO2)cc1	104	87	1	x
COc1ccc(-n2ccnc2SCC(=O)Nc2cccc(OC)c2)cc1	92	96	x	103
NCc1cccn1Cc1ccccc1F	x	x	-12	100
NC(=O)COc1ncn(-c2ccccc2)n1	x	x	-17	99
COc1ccc(C(=O)c2c(N)sc3c2CCN(C(=O)OC(C)(C)C)C3)cc1	96	91	-25	101
C=CCn1c(N)cc(=O)nc1SCC(=O)NC1CCCCC1	92	88	3	103
COc1ccc(CNC(=O)C(=O)Nc2cccc(C)c2C)cc1	96	89	-11	102
CCCn1nc(C(=O)Nc2ccc(S(=O)(=O)N(C)C)cc2)c2ccccc2c1=O	69	81	-7	x
Cc1nn2c(N3CCCCC3)cc(C(C)(C)C)nc2c1-c1ccc(F)cc1	x	x	3	103
COc1ccc(OC)c(C2SCCN2C(=O)c2cc3cc(Br)ccc3oc2=O)c1 (configuration not stated)	x	x	-11	101
COc1cc(C)ccc1OCCSc1nnc(-c2cccs2)o1	101	73	-6	94
CCCCC(=O)Nc1cccc2nsnc12	73	41	-69	103
Cc1csc(=O)n1CCC(=O)OCc1ccc(C#N)cc1	83	86	-14	x
CSc1ccccc1NC(=O)CN(C)CC(=O)Nc1ccc(N2CCOCC2)cc1	88	91	-18	x
CN1CCN(S(=O)(=O)c2ccc3[nH]c(=O)sc3c2)CC1	x	x	-4	112
C=CCNC(=S)N1CCCc2ccccc21	103	90	-16	x
Cc1oc(-c2ccc(C(=O)O)cc2)nc1CN1CCCCC1	106	88	x	106
O=C1Nc2ccccc2/C1=C/c1ccc(-c2ccc(F)cc2)o1	83	90	-12	x
COc1ccc(-c2noc(CC(=O)N(C(C)C)C3CCCCC3)n2)cc1	105	86	x	105
N#C/C(=C(/O)CN1CCN(Cc2ccccc2)CC1)c1nc(-c2ccccc2)cs1	102	89	-33	x
COc1cc(C2C3=C(CC(C)(C)CC3=O)N(C)C(=O)N2C)cc(OC)c1OC (configuration not stated)	93	99	0	x
CC(NC(=O)Cn1c(CCCO)nc2ccccc21)C1CC2CCC1C2 (configuration not stated)	103	94	11	x
COc1ccc2[nH]c(=O)c(-c3ccccc3)c(O)c2c1	94	89	-1	105
CCOC(=O)c1cc(S(=O)(=O)N2CCCC2C(=O)Nc2cc(F)ccc2F)cn1C (configuration not stated)	x	x	-18	107
CC(NC(=O)CSc1nccc(=O)[nH]1)C1CC2CCC1C2 (configuration not stated)	81	91	-19	x
Cc1nc(Sc2nnc3n2CCCCC3)c2c(-c3cccs3)csc2n1	74	78	-14	x
CC(=NCCc1ccccc1)C1CCOC1=O (configuration not stated)	100	82	-4	105
O=C(NCCCN1CCN(c2ccc(F)cc2)CC1)c1ccc2nc(CCc3ccccc3)oc2c1	94	91	x	103
CC(C)C1Oc2ccc(Cl)cc2NC1=O (configuration not stated)	x	x	-19	113
CCOc1ccc(NCc2nc3ccccc3n2C)cc1	141	90	-7	103
COc1ccccc1C(=O)Nc1ccc2nc(SCC(=O)Nc3ccc(C)cc3C)sc2c1	93	73	-7	x
CC(=O)N1CCN(CCNC(=O)c2ccncc2)CC1	107	91	-13	104
O=C(O)C1CCCN1Cc1c[nH]c2ccccc12 (configuration not stated)	74	87	x	99
Cc1nc(-c2cccc(C(=O)Nc3cc(Cl)ccc3C)c2)no1	x	x	-24	103
CCN1C(=O)c2cccc3c(S(=O)(=O)N(C(=O)c4ccncc4)c4ccc(OC)cc4)ccc1c23	102	90	x	104

Reformatted with each value named: 4 of the compounds above
Cc1nc(Sc2nnc3n2CCCCC3)c2c(-c3cccs3)csc2n1
- Sa growth inh: 74
- Sa growth inh second temp: 78
- HCMV UL50-53 inh: -14
- GIV-Gai inh: x
CC(=NCCc1ccccc1)C1CCOC1=O (configuration not stated)
- Sa growth inh: 100
- Sa growth inh second temp: 82
- HCMV UL50-53 inh: -4
- GIV-Gai inh: 105
O=C(NCCCN1CCN(c2ccc(F)cc2)CC1)c1ccc2nc(CCc3ccccc3)oc2c1
- Sa growth inh: 94
- Sa growth inh second temp: 91
- HCMV UL50-53 inh: x
- GIV-Gai inh: 103
CC(C)C1Oc2ccc(Cl)cc2NC1=O (configuration not stated)
- Sa growth inh: x
- Sa growth inh second temp: x
- HCMV UL50-53 inh: -19
- GIV-Gai inh: 113

Next part:
SMILES	Sa growth inh	Sa growth inh second temp	HCMV UL50-53 inh	GIV-Gai inh
CCOC(=O)c1ccc2nc(/N=C/NO)sc2c1	40	23	-1	104
CCSc1nc2c(c(=O)n1CC)SCC2	103	90	-26	108
Cc1[nH]c(C(=O)N2CCCC(C(=O)NCCN3CCN(C)CC3)C2)c(C)c1C(=O)OC(C)C (configuration not stated)	x	x	-21	104
Cc1sc2ncc(C(=O)NC3CC3)c(=O)n2c1C	x	x	-6	115
CC(C)c1ccc(N2C(=O)c3cc4ccsc4n3CC2(C)C(=O)NC2CCCC2)cc1 (configuration not stated)	x	x	-26	105
Cc1cc(C)c2[nH]c(=O)c(CNCC3CCCO3)cc2c1 (configuration not stated)	85	80	-49	104
O=c1c2c(-c3cccs3)csc2[nH]c(=S)n1CCc1ccccc1	103	90	10	x
CCOC(=O)c1c(C)n(-c2ccccc2Br)c2c1cc(O)c1ccccc12	x	x	-14	100
Cc1ccc(-c2noc(C3CC(=O)N(c4ccc5c(c4)OCCO5)C3)n2)cc1 (configuration not stated)	113	90	x	100
COc1cc2c(cc1NS(=O)(=O)N1CCCCC1)oc1ccccc12	81	102	2	101
C=CCSc1nnc(NC(=O)/C=C/c2c(Cl)nc3sccn23)s1	71	92	-5	x
O=C1NC2(CCCCC2)C(=O)N1CCN1C(=O)c2ccccc2C1=O	70	89	-28	x
O=C(C1COc2ccccc2O1)N1CCCc2ccccc21 (configuration not stated)	111	92	-7	99
CC1(C)Cc2ccccc2-c2nc3[nH][nH]c(=S)n3c(=O)c21	50	43	-34	105
Cc1nc(N)[nH]c(=O)c1CCC(C)C	108	91	-14	104
COC(=O)C1=C(C)NC(C)=C(C(=O)OC)C1c1ccccc1Cl	x	x	-12	103
Cc1sc2ncc(C(=O)N3CCN(c4ccc(F)cc4)CC3)c(=O)n2c1C	x	x	-23	101
COC(=O)c1cc(-c2ccccn2)no1	100	87	-21	x
Clc1ccccc1-c1nc(C2CCCCC2)no1	95	96	-2	107
